PKD1 inh: inhibitors of human PKD1 kinase; Q15139; 200,000 tested, 0.056% active; inhibition, %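 (about 10 µM by stock and volumes)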; AID 797; PKD1 kinase fluorescence polarization assay;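 active means inhibition of 50% or more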;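 further: controls were vehicle for no effect and a reference inhibitor for full effect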
HSV replic up: increases HSV replication in cells | HSV replication augmentation in cells, fold increase | maximum fold increase | 220,000 tested, 0.005% active;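 active means peak rise of 1.5-fold or more in the series; inconclusive means self-fluorescent or not available for retest; tested in PC3 cells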;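 further: first round at 10 µM; read as green reporter fluorescence; hits show the peak of a series up to 25 µM; 1 = signal of infected wells without compound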
RGS16-Gao: RGS16-Galphao interaction regulator (human). O15492+P09471. bead-based flow cytometry RGS16-Galphao binding, fluorescence; actives lie on both sides. binding response (% of control), % at 10 µM. 220,000 tested, 0.38% active. AID 1441;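 active means below 25% or above 175%, edge rows of some plates excepted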;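 further: Galphao activated by GDP with aluminum fluoride before binding; 100% = wells without compound and 0% = beads without RGS; some results beyond the cut were filed as inactive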
Target sequence (O15492 whole entry, looked up): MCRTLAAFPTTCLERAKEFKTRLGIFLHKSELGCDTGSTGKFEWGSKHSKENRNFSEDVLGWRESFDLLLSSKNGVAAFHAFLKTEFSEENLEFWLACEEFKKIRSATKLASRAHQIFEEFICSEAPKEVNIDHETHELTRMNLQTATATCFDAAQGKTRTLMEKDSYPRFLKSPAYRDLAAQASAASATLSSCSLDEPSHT
Target sequence (P09471 whole entry, looked up): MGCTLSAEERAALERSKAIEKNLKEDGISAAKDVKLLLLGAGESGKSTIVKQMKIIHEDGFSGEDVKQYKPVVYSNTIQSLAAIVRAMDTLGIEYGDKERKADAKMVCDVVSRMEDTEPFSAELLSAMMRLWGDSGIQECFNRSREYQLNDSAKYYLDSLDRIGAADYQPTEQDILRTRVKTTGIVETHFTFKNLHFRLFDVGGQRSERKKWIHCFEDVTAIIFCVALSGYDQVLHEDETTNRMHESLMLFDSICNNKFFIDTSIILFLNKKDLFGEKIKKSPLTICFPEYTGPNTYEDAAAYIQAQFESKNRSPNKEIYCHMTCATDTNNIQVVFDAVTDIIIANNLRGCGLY
Insulin prom inh: TRM-6 insulin promoter activity inhibition; AID 1273; 130,000 tested, 0.9% active; inhibition, % at 2 µM; TRM-6 cells (human fetal islet line), insulin promoter-eGFP reporter, imaging; reporter expression induced with tamoxifen;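 active means inhibition above the mean plus 3 SD, with well images judged a real hit on visual review, cut at about 60% in these data, passing the limit was not always enough; inconclusive means inhibition over the cutoff but images rejected on review; inactive means inhibition not above the cutoff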
GALR2 agonist: agonists of human galanin receptor 2 (GALR2) | activation, %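 (tested at 5 µM)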 | AID 803 | 140,000 tested, 0.48% active | O43603 | GALR2-expressing cells, agonist activation read-out;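 active means above mean plus 3 SD of all compounds, about 5% in these data, not always enough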;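 further: 0% = vehicle buffer wells and 100% = reference agonist at full effect; tested in CHO reporter cells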
Target sequence (O43603 whole entry, looked up): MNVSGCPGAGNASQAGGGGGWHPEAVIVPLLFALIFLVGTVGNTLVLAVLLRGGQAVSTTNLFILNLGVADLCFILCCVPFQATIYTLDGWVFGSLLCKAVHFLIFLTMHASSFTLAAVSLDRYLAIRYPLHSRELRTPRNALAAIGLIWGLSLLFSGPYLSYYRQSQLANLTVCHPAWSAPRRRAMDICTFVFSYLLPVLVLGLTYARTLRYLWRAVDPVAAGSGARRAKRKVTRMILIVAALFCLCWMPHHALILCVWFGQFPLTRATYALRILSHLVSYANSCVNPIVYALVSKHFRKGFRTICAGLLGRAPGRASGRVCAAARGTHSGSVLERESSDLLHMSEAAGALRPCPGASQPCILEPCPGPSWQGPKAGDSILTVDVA
Insulin prom inh cell count: also measured in Insulin prom inh; calls as there; normalized cell count, %; measured here: cell count, toxicity; reference of the scale not given here;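 cells exposed to compound for 48 h; stained nuclei by imaging scaled within each plate; lower means fewer cells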
HSV replic up primary fold: second read-out of HSV replic up, no call of its own (marks repeat the call); fold increase; compound at 10 µM; measured here: primary screen fold increase 10 uM; tested in PC3 cells;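 GFP signal in the first replicate; 1 = infected wells without compound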
* hit, by the source's call; i = inactive; ? = inconclusive; nt = no result given.

SMILES,PKD1 inh,HSV replic up,RGS16-Gao,HSV replic up primary fold,Insulin prom inh cell count,GALR2 agonist,Insulin prom inh
CCc1ccc(OCc2n[nH]c(=S)n2Cc2ccccc2)cc1,3.8,i,66.6,1.03,135.9,nt,41.7
COc1cc2sc(C)nc2cc1C,-3.5,i,103.5,0.96,nt,nt,nt
O=c1[nH]c(SCc2ccccc2)nc2c1sc1ccccc12,1.3,i,97.2,0.92,116.0,nt,7.7
CCOc1ccccc1C1CC(c2cccs2)=NN1S(C)(=O)=O (configuration not stated),2.9,?,108.0,nt,nt,nt,nt
Cc1ccccc1OCC(=O)N/N=C/c1c(C)nn(-c2ccccc2)c1Cl,0.1,i,78.0,0.89,104.3,-0.8,20.0
O=C(NCCC1=CCCCC1)C1CCN(c2nnc(-n3cccc3)s2)CC1,-11.0,i,108.6,1.01,nt,-0.7,nt
CCC(C)(C)NC(=O)/C=C/c1cnc2ccccc2n1,-9.6,i,104.5,1.04,96.1,-1.2,10.8
CN(C(=O)COC(=O)CNC(=O)c1ccccc1Cl)c1ccccc1,-0.1,i,100.7,0.94,121.7,nt,-21.1
O=c1c(Cl)c(NCCO)ncn1-c1ccccc1,0.2,i,74.7,1,nt,-2.3,nt
Cc1ccc2c(CN3C(=O)NC4(CCCCC4)C3=O)cc(=O)oc2c1C,-13.9,i,102.9,0.88,nt,0.3,nt
COc1ccccc1C(=O)N(Cc1nc(-c2ccc(Cl)cc2)no1)C(C)C,6.2,i,117.2,0.62,nt,-3.9,nt
CC(OC(=O)c1cc[n+]([O-])cc1)C(=O)Nc1ccc(Cl)cn1 (configuration not stated),-12.2,i,118.2,0.94,112.6,-2.0,16.1
CCc1ccc(-c2nc(C(N)=O)c3[nH]c(=O)n(-c4ccccc4OC)c3n2)cc1,-0.1,i,105.8,0.51,nt,-4.6,nt
Cc1csc(=S)n1-c1ccccc1,0.8,i,117.7,0.86,136.2,0.4,-5.1
O=C(O/N=C(\c1ccccc1)c1ccccn1)c1ccc(Cl)c(Cl)c1,-10.3,i,99.9,0.97,nt,-3.3,nt
COc1ccc2cc(C#N)c(Nc3cccc(F)c3)nc2c1,2.4,i,114.4,0.93,nt,nt,nt
CCOc1ccccc1NC(=O)c1oc2ccccc2c1NC(=O)C1CCCO1 (configuration not stated),2.7,i,99.3,1.01,nt,nt,nt
COc1cc(C(=O)Nc2c(C)cc(C)cc2C)c([N+](=O)[O-])cc1OC,-11.3,i,109.8,0.96,113.1,-0.2,7.1
O=C1C2C3C=CC(C2C(=O)N1c1cccc(O)c1)C1C2C(=O)N(c4cccc(O)c4)C(=O)C2C31 (configuration not stated),-3.6,i,100.1,0.87,79.6,nt,13.3
CCOc1ccc(/C=C2\SC(=S)N(C(C(=O)O)c3ccccc3)C2=O)cc1OC (configuration not stated),nt,i,103.2,1.08,nt,nt,nt

Copied from the listing, 2 compounds:
SMILES,PKD1 inh,HSV replic up,RGS16-Gao,HSV replic up primary fold,Insulin prom inh cell count,GALR2 agonist,Insulin prom inh
O=C1C2C3C=CC(C2C(=O)N1c1cccc(O)c1)C1C2C(=O)N(c4cccc(O)c4)C(=O)C2C31 (configuration not stated),-3.6,i,100.1,0.87,79.6,nt,13.3
CCOc1ccc(/C=C2\SC(=S)N(C(C(=O)O)c3ccccc3)C2=O)cc1OC (configuration not stated),nt,i,103.2,1.08,nt,nt,nt

(more compounds)
SMILES,PKD1 inh,HSV replic up,RGS16-Gao,HSV replic up primary fold,Insulin prom inh cell count,GALR2 agonist,Insulin prom inh
Cc1ccc2[nH]cc(C(=O)CN3CCC4(CC3)OCCO4)c2c1,-27.9,i,102.2,1.06,nt,-1.8,nt
Cc1cc(C(F)F)n2nc(C(=O)Nc3ccccc3F)nc2n1,-13.4,i,92.2,0.9,55.2,-1.9,16.7
COc1cc(CNc2nc(C)c([N+](=O)[O-])c(C)c2C#N)cc(OC)c1,-0.2,i,98.0,0.96,167.6,-0.7,13.6
Cc1nn(-c2nc3ccccc3[nH]2)c(N)c1-c1ccc(Cl)cc1,-11.2,i,96.2,0.75,111.4,-3.7,48.6
CCOC(=O)N1CCN(c2cc(C)nc3nc(C)nn23)CC1,2.0,i,83.7,0.85,nt,-1.9,nt
CC(C)(C)NC(=O)CSc1nc(-c2ccc(F)cc2)cs1,3.3,i,100.8,1.01,nt,nt,nt
COC(=O)CN=Cc1c(O)n(-c2ccc(Cl)cn2)c(=O)c2ccccc12,-7.9,i,96.8,1.06,nt,nt,nt
CC(C)c1ccc(OCC(=O)N(c2ccccn2)C2CCCCC2)cc1,1.9,i,97.5,1.02,116.3,-1.1,23.3
CN(C)c1nc(N)nc(/C(C#N)=C/C2CC3C=CC2C3)n1 (configuration not stated),2.1,i,101.0,0.97,153.9,0.3,35.7
Clc1ccc(-c2cn3cccnc3n2)cc1Cl,0.7,i,119.0,1.05,129.4,-0.1,0.0
Cc1cc(NC(=O)c2cccc(N3C(=O)CCC3=O)c2)no1,1.4,i,101.0,1.06,nt,-1.1,nt
CN(C)CCCNC1=CC(=O)OC12CCCCC2,-23.6,i,102.0,0.91,95.9,-1.0,-300.0
CC(=O)Nc1ccc(/C(C)=N\NC(=O)c2ccc(-c3ccccc3)cc2)cc1,13.0,i,95.8,1.08,108.0,nt,-83.3
CC(=C/c1ccccc1)/C=N/Nc1nc(N2CCCCC2)nc(N2CCCCC2)n1,-4.6,i,109.0,0.9,112.6,0.2,14.8
COc1ccc(C(=O)c2ccc(OC)c(N)c2)cc1N,-4.1,i,52.3,0.69,32.0,0.6,-76.6
COc1ccc(C(=O)Nc2cc(OC)nc(OC)n2)cc1,-2.1,i,105.1,0.98,44.6,-1.5,-262.5
Cn1c(CSc2nc3ccccc3s2)nnc1SCC(=O)NCc1ccccn1,-18.1,i,97.7,0.92,105.0,-0.2,-33.3
CC(C)N(C)CCOC(=O)c1ccc2c(c1)OCCO2,-16.8,i,nt,0.96,111.4,-2.1,-23.1
CC(SC(=S)N1CCCC1)C(=O)O (configuration not stated),10.1,i,116.5,0.62,102.5,nt,6.7
O=C1CCCc2c1cc(C(=O)O)c(=O)n2-c1ccccc1,-4.8,i,110.0,1.02,31.8,nt,-400.0
Cc1ccc(-c2nc3c(c(=O)[nH]c(=O)n3CC(C)C)n2CC(C)C)cc1[N+](=O)[O-],0.0,i,71.6,0.97,nt,nt,nt
COc1ccc(-c2csc(/C(C#N)=C\c3ccc(OC)c([N+](=O)[O-])c3)n2)cc1,-3.8,i,93.3,1.02,95.2,0.2,12.0
Cc1cnc(C(=O)Nc2cc(F)ccc2C)cn1,-5.5,i,109.8,0.99,nt,nt,nt
CC(C)(C)NC(=O)NC(=O)COC(=O)CNS(=O)(=O)/C=C/c1ccccc1,0.7,i,104.0,0.98,nt,nt,nt
CCCCCCOc1ccc(N2C(=O)CC(S/C(N)=N/N=C(\C)c3cccs3)C2=O)cc1 (configuration not stated),-1.0,i,102.4,0.76,nt,-1.8,nt
CCOC(=O)c1cccc(NC(=O)CSc2nnc(C)n2Cc2ccccc2)c1,-6.0,i,99.0,0.84,nt,-1.3,nt
CCOc1ccc(-c2nnn(CC(=O)c3cc(OC)ccc3OC)n2)cc1,29.3,i,103.2,0.98,79.7,-2.7,64.3
O=C(CNc1n[nH]c(=O)[nH]c1=O)N/N=C/c1ccccc1,nt,i,104.6,1.18,nt,nt,nt
CCc1nc(C)c(C#N)c2cc(OC)c(OC)cc12,-8.4,i,106.0,0.997,103.8,-3.6,40.0
CC1(C)C2CC=C(/C=N/NC(=O)C(N)=O)C1C2 (configuration not stated),nt,i,106.4,0.91,nt,nt,nt
Cc1cccc(-c2nnc(SCC(=O)C(C)(C)C)n2C)c1,nt,i,102.1,0.99,nt,nt,nt
CN(c1ccc(OCC(=O)N2CCN(c3ccc(F)cc3)CC2)cc1)S(=O)(=O)c1cccs1,-8.2,i,105.4,0.96,98.4,nt,-36.4
Cc1ccc(Nc2nc3nonc3[nH]c2=O)cc1C,-7.5,i,101.9,0.91,nt,-0.8,nt
FC(F)(F)c1cccc(-c2nc(COc3ccc(Cl)cc3Cl)no2)c1,nt,i,103.3,1.05,nt,nt,nt
COc1cc(-c2cc3nc(C)c(C)c(=O)n3[nH]2)cc(OC)c1OC,-9.1,i,92.1,1.06,nt,-0.4,nt
O=C(c1ccoc1)N1CCC2(CC1)Oc1ccc(F)cc1C(=O)C21CC(c2cccnc2)=NO1 (configuration not stated),nt,i,99.5,0.97,nt,nt,nt
COCc1[nH]nc2c1C(c1ccc(F)cc1F)C(C#N)=C(N)O2 (configuration not stated),nt,i,92.7,0.88,nt,nt,nt
COC(=O)c1ccc(CSc2nnc(N)s2)cc1,3.2,i,104.9,0.94,69.2,-1.1,-4.3
Cc1cccc(NC(=S)N(CCN2CCOCC2)Cc2ccccc2F)c1,-4.0,i,106.4,0.9,85.1,nt,33.3
Nc1nonc1-c1nc2ccccc2n1CC(=O)Nc1ccccc1,nt,i,104.1,0.82,nt,nt,nt
O=C(Oc1ccc(/C=N/O)cc1)c1ccccc1Cl,-1.8,i,94.6,0.87,88.9,nt,-17.6
O=[N+]([O-])c1ccc(/C([O-])=C(/C(=S)NCc2ccco2)[n+]2ccccc2)cc1,-7.0,i,89.1,1.1,64.0,nt,-46.7
Cc1nnsc1-c1c(C(=O)N2CCOCC2)c(C)nn1-c1ccccc1,nt,i,101.0,1.16,nt,nt,nt
O=C(CSc1nc(-c2ccco2)cc(C(F)(F)F)n1)NCCN1CCOCC1,-9.7,i,116.5,1.02,93.1,nt,13.3
N#CCCNC(=O)CCN1CCOCC1,1.1,i,102.2,1.02,139.5,-2.9,-10.3
Cc1ccc(NC2=CC(=O)CC(c3ccco3)C2)c(N)c1 (configuration not stated),3.9,i,101.6,0.98,127.6,-2.3,-13.9
CCc1nnc(NC(=O)CCC(=O)N2CCN(CCc3ccccc3)CC2)s1,nt,i,107.3,0.92,nt,nt,nt
Cc1ccc(-n2c(-c3ccc(Br)cc3)c[n+]3c2CCc2ccc4cccnc4c2-3)cc1,-1.6,i,60.6,0.5,25.1,1.1,-16.2
Cc1ccc(-c2nnc(C)c(N3CCCC3)n2)cc1,-1.9,i,103.3,0.9,203.1,nt,17.1
Cc1ccc(-c2csc(-c3ccncc3)n2)cc1,-6.8,i,107.5,1.07,nt,nt,nt
CCOC(=O)C(NC(=O)CC)(Nc1ccccc1OC)C(F)(F)F (configuration not stated),-0.5,i,108.2,0.98,104.2,-1.7,6.1
COc1ccc(/C=N/NC(=O)c2ccccc2F)cc1CN1CCN(c2ccc(F)cc2)CC1,0.7,i,77.9,1.01,100.4,0.0,10.3
COc1ccc(/C=N/NC(=S)Nc2ccccc2)cc1COc1ccccc1F,-5.9,i,106.5,0.84,114.6,1.1,38.7
CS(=O)(=O)c1ccc2nnn(OCC(=O)Nc3ccc(Br)cc3Br)c2c1,2.8,i,108.2,0.66,106.0,nt,23.8
O=C(Cc1ccccc1)Nc1ccc2oc(=O)ccc2c1,-3.6,i,102.2,0.96,nt,nt,nt
CCN(C1CCCCC1)S(=O)(=O)c1ccc(C(=O)O)cc1,-1.2,i,101.1,0.77,194.6,-1.2,14.8
CCOC(=O)CSc1nnc(-c2cccc(Cl)c2)n1CC,3.0,i,113.3,1,nt,-1.5,nt
O=C(CN1CCOCC1)Nc1ccc(Oc2ccccc2)cc1,-3.6,i,104.4,0.91,106.3,0.4,48.6
O=C(Cc1sc(Nc2ccccc2)nc1-c1ccccc1)NCc1ccccn1,2.0,i,49.1,0.95,113.1,nt,-45.5
COc1cc([N+](=O)[O-])ccc1NC(=S)NC(=O)CC(C)(C)C,3.1,i,100.5,0.99,nt,nt,nt

Later entries:
SMILES,PKD1 inh,HSV replic up,RGS16-Gao,HSV replic up primary fold,Insulin prom inh cell count,GALR2 agonist,Insulin prom inh
CN(C)S(=O)(=O)c1cccc(NC(=O)COC(=O)c2cc(=O)[nH]c(=O)[nH]2)c1,-9.0,i,98.2,1.08,nt,nt,nt
O=C(CSc1nc2ccccc2s1)N/N=C/c1cc([N+](=O)[O-])ccc1O,nt,i,89.3,0.93,nt,nt,nt
Cc1cccc(-c2nsc(SCC(=O)NCc3ccc4c(c3)OCO4)n2)c1,5.5,i,97.0,1.12,nt,-0.3,nt
Cn1c(N)c(C(=O)COC(=O)c2cc(C(F)(F)F)nc3ccccc23)c(=O)n(Cc2ccccc2)c1=O,-5.5,i,102.7,0.8,96.2,-0.9,9.1
